From PubChem
D2 agonist: Beta-Arrestin HTS for Positive Allosteric Modulators of the Human D2 Dopamine Receptor: Agonists; 0.084% of 360,000 active; D(2) dopamine receptor (Homo sapiens), P14416; activation, % (concentration not given with the values); DiscoveRx PathHunter D2 beta-arrestin, luminescence, 90 min; 100% = 57 uM dopamine signal; AID 624465, 2012; in the data active = activation above about 40%; inconclusive = about 15% to 40%; inactive = below about 15%; note: compound concentration not given in the record; the text of the record calls up to 30% inactive
Target sequence (P14416 whole entry, looked up): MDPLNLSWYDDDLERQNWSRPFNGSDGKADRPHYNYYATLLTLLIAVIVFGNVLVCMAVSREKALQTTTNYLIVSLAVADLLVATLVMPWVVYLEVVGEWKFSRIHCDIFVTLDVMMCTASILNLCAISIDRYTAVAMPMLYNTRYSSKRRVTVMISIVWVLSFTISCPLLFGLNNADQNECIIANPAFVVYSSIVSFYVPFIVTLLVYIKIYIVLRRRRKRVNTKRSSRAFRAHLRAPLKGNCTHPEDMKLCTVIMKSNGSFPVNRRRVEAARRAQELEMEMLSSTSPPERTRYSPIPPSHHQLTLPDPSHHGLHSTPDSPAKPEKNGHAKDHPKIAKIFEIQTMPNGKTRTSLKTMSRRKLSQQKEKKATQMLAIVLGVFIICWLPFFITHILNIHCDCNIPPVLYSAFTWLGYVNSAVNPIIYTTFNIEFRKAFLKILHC
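Agonist mode: compounds alone added to overnight-plated D2 PathHunter cells for 90 min at 37 C, with 57 uM final dopamine (EC100) defining full response. Beta-arrestin recruitment detected by chemiluminescent reagent, read after 1 h at ambient temperature.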
gsp agonist: qHTS for Agonist of gsp, the Etiologic Mutation Responsible for Fibrous Dysplasia/McCune-Albright Syndrome: qHTS; Potency, µM (top dose mostly 76.9 µM), for the others: top-dose activation (cAMP increase), most hits filed as activators; gsp mutant cells, cAMP HTRF, 30 min; control for the full effect not named in the record; 0.13% of 340,000 active; AID 624287, 2012; active = well fitted activation curve with a large enough effect; inconclusive = small, poorly fitted or top-dose-only effect, or another doubt; inactive = no such curve, though single readings can be large or run the other way; cell line not stated here;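 note: phosphodiesterase inhibitor Ro 20-1724 added with compounds to block cAMP breakdown; potency is the fitted concentration of half-maximal effect; nearly all actives have a fitted effect of over 60% in size; about a fifth of the inactives were tested at one dose only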
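Cells in DMEM/10% FBS with G418 were pretreated with compounds in DMSO plus […] (300 uM stock) for 30 min at 37C. cAMP was measured by HTRF (cAMP-d2 plus anti-cAMP antibody-K) after 30 min at room temperature.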
Sfp inh: qHTS Assay for Inhibitors of Bacillus subtilis Sfp phosphopantetheinyl transferase (PPTase); 4'-phosphopantetheinyl transferase ffp (Bacillus subtilis), Q9F4F7; Biochemical Sfp PPTase activity, qHTS; Potency, µM, for the others: max response, negative = inhibition, actives largely listed as inhibitors; 3.5% of 310,000 active; active = well fitted inhibition curve with a large enough effect; inconclusive = small, poorly fitted or top-dose-only effect, or another doubt; inactive = no such curve, though single readings can be large or run the other way;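 note: the enzyme is Sfp with the accession as filed and its product quenches rhodamine fluorescence; potency is the fitted concentration of half-maximal effect; 0% = enzyme reaction without inhibitor and -100% = no enzyme wells; top concentration of the series not given in the record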
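Fluorescence-quenching assay: 15 nM Sfp-PPTase preincubated 15 min at room temperature with compound, then 5 uM rhodamine-CoA and 12.5 uM BHQ-2-labelled YbbR peptide added. Fluorescence (ex 525/em 598 nm) read at start and after 30 min; difference gives rate.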
Menin-MLL FL inh: qHTS Assay for Inhibitors Targeting the Menin-MLL Interaction in MLL Related Leukemias: Competition With Fluorescein Labeled MLL-derived Peptide; FP activity change, % at 61.4 µM; Fluorescence polarization, fluorescein-MLL peptide displacement from menin; 290,000 tested, under 10 active; AID 1766, 2009; inconclusive = falling polarisation curve, or a change in total fluorescence; inactive = total fluorescence flat and polarisation flat or rising; no compound was filed as active; the % refers to the polarisation; negative = inhibition;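 note: % of control where 0% means no effect; inhibitors lower the polarisation; unlabelled MLL peptide was the positive control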
ClpP mod: qHTS Assay for Activators of ClpP. Potency, µM (doses to about 57.5 µM), for the others: at the highest dose activity change, negative = active. 1.9% of 340,000 active. purified B. subtilis ClpP, FRET peptide cleavage, 20 min. ATP-dependent Clp protease proteolytic subunit (Bacillus subtilis (strain 168)), P80244; active = well fitted falling curve with a large enough effect; inconclusive = small, poorly fitted or top-dose-only effect; inactive = no such curve, though single readings can be large or run the other way; note: potency is the fitted concentration of half-maximal effect; the source files actives as falling curves though it sought activators and does not explain the sign; nearly all actives have a fitted effect of over 65% in size; many hits overshoot -100%
Target sequence (P80244 whole entry, looked up): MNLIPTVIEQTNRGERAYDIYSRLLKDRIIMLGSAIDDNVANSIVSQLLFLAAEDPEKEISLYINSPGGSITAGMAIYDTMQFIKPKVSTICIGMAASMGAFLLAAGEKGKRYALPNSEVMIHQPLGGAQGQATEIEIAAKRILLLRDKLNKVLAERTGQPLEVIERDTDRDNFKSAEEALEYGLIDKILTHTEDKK
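FRET quenching reversal measured ClpP activation: 10 microg/mL B. subtilis ClpP at pH 8 with the FRET-FV decapeptide, read at 430 nm after 320 nm excitation. The 20-min minus 0-min signal was scaled between DMSO/no-enzyme wells and ADEP (5.8 microM final).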
gsp antag: qHTS for Antagonists of gsp, the Etiologic Mutation Responsible for Fibrous Dysplasia/McCune-Albright Syndrome: qHTS | gsp-mutant cells, cAMP HTRF, 30 min; control for the full effect not named in the record | Potency, µM (titrated, usually from 76.9 µM), without a hit: at the highest dose activity change, negative = inhibition, actives largely listed as inhibitors | 0.4% of 340,000 active; active = falling curve of any shape with a large fitted effect; inconclusive = falling curve, mostly with a smaller effect; inactive = flat or rising curve; cell line not stated here;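 note: intracellular cAMP measured with PDE inhibitor Ro 20-1724 present during compound exposure; potency is the fitted concentration of half-maximal effect; % is set by controls: 0 for no effect and ±100 for the full control effect; nearly all actives have a fitted effect of over 65% in size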
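HTRF cAMP measurement after 30 min RT detection following 30 min, 37C compound treatment alongside […] (added as 300 uM solution) in G418-selected cells seeded at 2000/well and grown 16–24 h.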
PINK1 expr mod: A Quantitative High throughput Screen to Identify Chemical Modulators of PINK1 Expression; PINK1 immunofluorescence, high-content cytometry, 24 h; Potency, µM (top dose mostly 76.6 µM), inactives show at the highest dose activation (PINK1 increase), hits mostly activators; 0.2% of 410,000 active; active = well fitted activation curve with a large enough effect; inconclusive = small, poorly fitted or top-dose-only effect; inactive = flat fitted curve, though single readings scatter; cell line not stated here;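 note: potency is the fitted concentration of half-maximal effect; % of control where 0% means no effect; nearly all actives have a fitted effect of over 65% in size; a mitochondrial uncoupler was the plate control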
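Decision-based qHTS: stable cells, 24 h exposure to five compound concentrations, CCCP as control. Fixed cells stained for PINK1 plus nuclear, mitochondrial and cell markers, cytometer read.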
* marks the source's active call; other numbers are inactive results; u = inconclusive; x = not tested or not shown; & = joins results of further samples; [ ] = remark or other dose.

Compound,D2 agonist,gsp agonist,Sfp inh,Menin-MLL FL inh,ClpP mod,gsp antag,PINK1 expr mod
CN1CCN(c2ccc(-c3cccc(NC(=O)COc4ccc(Cl)cc4Cl)c3)nn2)CC1,-1.8,1%[15.4 µM],x,x,x,2%,7.7%
Cc1cc(NC(=O)c2ccc(S(=O)(=O)Nc3ccccc3)cc2)no1,2.5,-23%,11%,2.5,-2.9%,9%,-0.4%
Cc1cc(NC(=O)COC(=O)C2CCN(C(=O)c3ccc(Cl)cc3)CC2)no1,-0.8,19%,19%,1.4,2.9%,0%,0.8%
CC(C)OC(=O)CSc1nnc(CNc2ccc(Cl)cc2)n1Cc1ccccc1,-3.3,-6%,-2%,1.8,-0.6%,-19%,0.4%
O=C(O)CCCNS(=O)(=O)c1ccc(NCc2ccccc2)c(C(=O)O)c1,-1.1,16%,-5%,3.9,u,0%,0.7%
CC(=O)N1CCN(CC(c2ccccc2)c2ccccc2)CC1,6.6,-11%,6%,0.0,3.2%,4%,-0.1%
CCOC(=O)NN1C(=O)c2ccccc2NC1c1ccccc1 (centres undefined),-0.4,11%,-1%,0.3,32µM*,9%,0.4%
COc1cccc(CN(C)S(=O)(=O)c2c(C)noc2C)c1OC,-4.5,-24%,x,x,-1.3%,5%,0.0%
CCOC(=O)C1(CC2CCCCO2)CCN(C(=O)Nc2ccc3c(c2)OCO3)CC1 (centres undefined),-1.3,9%[15.4 µM],3%,-9.7,x,2%,1.2%
Cc1cnc(C(=O)OCC(=O)Nc2ccc(Br)cc2F)cn1,0.5,-6%,x,x,-2.3%,9%,1.0%
Cc1ccc(NC(=O)CN(C)C(=S)NC2CC2)cc1,-2.4,14%[15.4 µM],9%,2.1,x,5%,-0.4%
COCCNS(=O)(=O)c1cc(OC)c(C)cc1C,-8.6,-1%,0%,0.3,4.3%,14%,1.5%

The results go on:
Compound,D2 agonist,gsp agonist,Sfp inh,Menin-MLL FL inh,ClpP mod,gsp antag,PINK1 expr mod
NC(=O)C1CCN(C(=O)c2ccc(OCC(=O)Nc3cccc(C(F)(F)F)c3)cc2)CC1,-2.1,-30%[inhibitor],x,x,-3.3%,7%,-0.7%
Cc1c(C(=O)OCC(=O)N2CCCC(C)C2)oc2ccccc12 (centres undefined),2.5,-14%[15.4 µM],x,x,x,13%,11%
Cc1ccc(NC(=O)COc2ccc(Br)cc2CO)cc1,-2.8,38%,9%,4.5,0.0%,4%,1.2%[38.3 µM]
Cn1cccc1CC(=O)NNC(=S)Nc1ccc(Cl)cc1Cl,-1.6,-23%,0%,4.9,0.0%,2%,1.2%
CC(C)(C)NC(=O)COC(=O)c1ccccc1NC(=O)c1ccco1,1.3,0%[15.4 µM],13%,0.4,x,x,1.0%
O=C(Nc1c2c(nn1-c1cccc(Cl)c1)CS(=O)(=O)C2)c1ccco1,-1.3,u,-1%,5.7,-1.2%,1%,-1.7%
CCCCn1c(N)c(N(CC(C)C)C(=O)CCCn2c(=O)oc3ccccc32)c(=O)[nH]c1=O,-0.9,-19%[15.4 µM],x,x,x,-2%,-0.7%
CC1(C)CC(=O)C2=C(C1)N(c1ccccc1)C(=O)C2(O)C(F)(F)F (centres undefined),-9.6,3%,36%[activator],1.5,-2.1%,3%,1.2%
COC(=O)c1cccc(COC(=O)c2ccc(CS(=O)(=O)c3ccc(C)cc3)cc2)c1,1.2,-35%[inhibitor],3%,1.9,1.0%,-17%,x
Cc1oc2cc(O)ccc2c(=O)c1Oc1ccccc1,-3.0,15%,0%,-0.7,11µM*,-11%,2.5%
CCOC(=O)N1CCN(C(=O)COC(=O)C2CCN(S(=O)(=O)c3ccc(C)c(C)c3)CC2)CC1,1.2,-5%,x,x,-1.6%,-13%,4.5%
O=C(NCC(c1cccnc1)N1CCN(c2ccccc2)CC1)c1ccco1 (centres undefined),1.6,3%,x,x,0.1%,4%,x

Complete entries, looked up by structure.
Results for Cc1c(C(=O)OCC(=O)N2CCCC(C)C2)oc2ccccc12 (centres undefined) → D2 agonist = 2.5; gsp agonist = -14%[15.4 µM]; Sfp inh = x; Menin-MLL FL inh = x; ClpP mod = x; gsp antag = 13%; PINK1 expr mod = 11%
Results for CCCCn1c(N)c(N(CC(C)C)C(=O)CCCn2c(=O)oc3ccccc32)c(=O)[nH]c1=O → D2 agonist = -0.9; gsp agonist = -19%[15.4 µM]; Sfp inh = x; Menin-MLL FL inh = x; ClpP mod = x; gsp antag = -2%; PINK1 expr mod = -0.7%

Next section
Compound,D2 agonist,gsp agonist,Sfp inh,Menin-MLL FL inh,ClpP mod,gsp antag,PINK1 expr mod
CC(=O)c1sc(Nc2ccc(Oc3ccccc3)cc2)nc1C,4.2,x,x,x,-24%,x,3.4%
COc1ccc(-c2cc(-c3ccccc3)nc(SCC(=O)Nc3ncc(C)s3)c2C#N)cc1,-2.3,0%,14%,1.3,u,-5%,1.7%
O=C(Cn1cnc2c(OCc3ccccc3)ncnc21)NCc1nc2ccccc2[nH]1,2.0,x,x,x,-3.0%,0%,2.2%
C/C(=N\NC(N)=S)c1ccc(-n2ccnc2)cc1,-4.8,-7%,79µM*,0.2,-1.0%,3%,-0.8%
COc1cc(/C=N/S(=O)(=O)CCc2ccccc2)cc(OC)c1O,-1.0,20%,-1%,3.6,-3.9%,1%,-1.5%
CC(C)(C)C(=O)CN1CCN(C2c3ccccc3-c3ccccc32)CC1,-2.9,4%,-10%,-0.6,-0.2%,-10%,0.8%[38.3 µM]
O=C(Cc1ccccc1)NCC(=O)N/N=C/c1ccc(C(=O)O)cc1,0.0,u,13%,x,-0.8%,3%,0.7%
O=C(CC1Oc2ccccc2NC1=O)NCCCN1CCOCC1 (centres undefined),-4.0,11%,16%,0.9,1.5%,-1%,0.6%
CC1=NNC(=O)C1CC(=O)N/N=C/C(Br)=C/c1ccccc1 (centres undefined),4.0,13%,-16%,0.3,0.2%,6%,-0.1%
O=C1C=CC(=O)N1CCNc1ncc(C(F)(F)F)cc1Cl,-3.0,u,7.1µM*,0.4,x,0%,-0.8%
COc1cccc(CN2CC(C(=O)NCCCc3ccncc3)CCC2=O)c1 (centres undefined),-4.3,10%,10%,x,-2.6%,9%,-1.2%
COc1cccc(NS(=O)(=O)NC(=O)c2c(C)[nH]c3ccccc23)c1,1.1,2%,9%,-1.8,0.8%,9%,3.3%

The list continues:
Compound,D2 agonist,gsp agonist,Sfp inh,Menin-MLL FL inh,ClpP mod,gsp antag,PINK1 expr mod
CCn1c(SCC(=O)NC(=O)NCc2ccco2)nnc1-c1cccs1,-0.7,-18%,-12%,3.5,-2.6%,-11%,-1.0%
COc1ccc(CC(=O)NC(C)(C)C)cc1S(=O)(=O)N1CCOCC1,-2.9,-4%,5%,-6.6,1.8%,9%,-5.6%
O=C1CCc2cc(S(=O)(=O)NCc3ccc(F)cc3)cc3c2N1CC3,-5.7,-3%[15.4 µM],x,x,1.3%&-1.6%,11%,1.6%&1.3%
CC1CCc2c(sc3ncn4c(SCC(=O)NCc5ccco5)nnc4c23)C1 (centres undefined),-1.4,-3%,1%,-3.9,-3.9%,9%,x
COc1ccc(CCNC(=O)CCS(=O)(=O)Cc2ccccc2C)cc1OC,1.0,-22%,3%,0.5,0.1%,11%,-1.3%
CCN(C(=O)CSc1nc2cc(C(=O)OC)ccc2c(=O)n1Cc1ccco1)c1cccc(C)c1,0.9,-35%[inhibitor],-17%,-2.3,32µM*,1%,x
CCSc1ncc(/C=N/Nc2ccc(Cl)cc2)n1C,10,-47%[inhibitor],28µM*,0.9,-16%,-2%[15.4 µM],5.0%
Fc1ccc(C2NC(=S)NC3=C2N2CCC3CC2)cc1 (centres undefined),0.6,3%,11%,3.2,1.1%,-1%,x
N#C/C(=C\c1c(N2CCC(C(N)=O)CC2)nc2ccccn2c1=O)S(=O)(=O)c1ccccc1,-4.1,u,5%,2.0,5.2%,-1%,4.7%
CN(CCOc1ccccc1)C(=O)c1ccc2c(=O)n3c(nc2c1)CCC3,-5.2,-29%,x,x,-4.5%,8%,3.4%
COc1ccc(C2=NN(C(=O)COc3ncnc4ccccc34)C(c3ccco3)C2)cc1 (centres undefined),-1.4,-19%,-17%,-0.2,x,2%,4.8%
COc1cc2c(cc1NC(=O)C(C)OC(=O)C1CC(=O)N(Cc3ccco3)C1)oc1ccccc12 (centres undefined),-0.5,26%,-9%,1.2,u,u,2.3%

The list goes on:
Compound,D2 agonist,gsp agonist,Sfp inh,Menin-MLL FL inh,ClpP mod,gsp antag,PINK1 expr mod
O=S(=O)(c1ccc(Br)cc1)N1CCCN(Cc2cccc(F)c2)CC1,-0.5,5%,6%,0.6,0.1%,-7%,2.3%
Cc1cc(C)c(S(=O)(=O)N2CCOC2CNC(=O)C(=O)NCCc2ccc(S(N)(=O)=O)cc2)c(C)c1 (centres undefined),-3.6,-21%,8%,5.1,1.8%,-7%,2.4%
CCOC(=O)c1ccccc1NC(=O)CSc1nnc(Cc2cccn2C)n1-c1ccc(F)cc1,1.4,6%,-5%,-2.8,17%,-6%,-4.4%[38.3 µM]
CC(C)(C)OC(=O)NC1CONC1=O (centres undefined),-0.2,5%,8%,3.5,x,10%,-0.9%
CN(CC(=O)Nc1cccc(F)c1)C(=O)c1ccccc1-n1cnnn1,-1.3,-19%[15.4 µM],x,x,x,6%,-1.5%
CCOCCCNC(=O)COc1ccc(OC)cc1,-2.9,0%,18%,1.7,u,13%,2.1%
